GIRK2 act – opens human GIRK2 potassium channels | AID 1259325 | 0.05% of 63,000 active | HEK293-GIRK2 thallium flux, Thallos fluorescence | P48051 | calls only for hits at 25 µM;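 active = among the strongest 0.2% of first-round signals and kept after retests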;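 also: first round at about 10 µM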
Target sequence (P48051 whole entry, looked up): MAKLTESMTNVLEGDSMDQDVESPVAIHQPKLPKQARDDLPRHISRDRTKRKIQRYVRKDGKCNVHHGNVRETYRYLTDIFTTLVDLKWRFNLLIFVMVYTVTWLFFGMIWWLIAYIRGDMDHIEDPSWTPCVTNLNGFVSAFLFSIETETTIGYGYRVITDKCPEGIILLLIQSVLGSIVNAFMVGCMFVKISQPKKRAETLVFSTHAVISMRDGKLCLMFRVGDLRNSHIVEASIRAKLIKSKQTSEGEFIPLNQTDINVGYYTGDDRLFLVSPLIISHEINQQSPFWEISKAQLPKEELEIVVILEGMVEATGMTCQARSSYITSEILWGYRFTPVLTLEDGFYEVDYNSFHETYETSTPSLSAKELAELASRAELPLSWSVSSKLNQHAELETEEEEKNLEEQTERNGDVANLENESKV
Calls only; i = inactive.

SMILES	GIRK2 act
COc1cc(C(C)=O)ccc1OCC(O)Cn1cncn1 (centres undefined)	i
CC(C)c1ccc(N2C(=O)C3N=NN(Cc4nc(-c5cccc(Br)c5)no4)C3C2=O)cc1 (centres undefined)	i
COC(=O)c1ccc(C(=O)Nc2nnc(-c3csc(C)n3)o2)cc1	i
O=C(NCCc1cccs1)c1ccc(Oc2nccnc2N2CCOCC2)cc1	i
COc1nn(C)cc1C(=O)N1CCN(Cc2ccsc2)CC1	i
COc1ccc(Cl)cc1NC(=O)N1CCC(Oc2ccc(Cl)cn2)CC1	i
O=C(CN1C(=O)C2(SCC(=O)N2c2ccc(F)cc2)c2ccccc21)NCc1ccccc1 (centres undefined)	i
Cc1ccc(CNC(=O)Cn2nc3c(N4CCOCC4)nccn3c2=O)cc1	i
COc1ccc(-c2ccc(N3CCC(C(=O)N4CCN(c5ccc(F)cc5)CC4)CC3)nn2)cc1	i
O=C(Cc1ccc(F)cc1)Nc1ccc(Nc2cc(-n3cccn3)ncn2)cc1	i
CSc1nnc(-c2ccccc2NC(=O)c2ccc(Cl)c(S(=O)(=O)N3CCCCC3)c2)o1	i
COc1ccccc1OCC(=O)N1CC(c2nc3ccccc3[nH]2)C1	i
O=C1c2oc3ccc(Cl)cc3c(=O)c2C(c2ccc(Cl)cc2)N1c1nccs1 (centres undefined)	i
Cc1ccc2c(=O)c(C(=O)N3CCC(C)CC3)c[nH]c2n1	i
O=C(c1ccc2c(c1)OCO2)N1CCCC(c2nnc(-c3cccs3)o2)C1 (centres undefined)	i
Cc1c(C(=O)NCCSc2nncn2C)cnn1-c1ccccc1	i
O=C(NCc1ccc(Cl)cc1)c1ccc(Cn2c(=S)[nH]c3cc4c(cc3c2=O)OCO4)cc1	i
CS(=O)(=O)c1ccccc1NC(=O)C1CCCC1	i
COc1cccc2sc(N(Cc3ccccn3)C(=O)c3ccnn3C)nc12	i
COc1ccc(-n2nnc(C(=O)Nc3ccc(Br)cc3F)n2)cc1	i
Cc1cc(C)cc(N2C(=O)N(c3ccc([N+](=O)[O-])cc3)C3CS(=O)(=O)CC32)c1 (centres undefined)	i
COCCN(Cc1ccncc1)C(=O)c1ccccc1SC	i
N#Cc1nc(-c2ccc(S(=O)(=O)N3CCCC3)cc2)oc1NCCCN1CCOCC1	i
O=C(CSc1ccc(S(=O)(=O)C2CCCCC2)nn1)NCc1cc(F)cc(F)c1	i
CCOc1ccccc1C(=O)Nc1nonc1-c1ccc(OC)cc1	i

Other entries follow.
SMILES	GIRK2 act
Cc1csc(SCC2CCN(C(=O)c3ccco3)CC2)n1	i
Cc1ccc(C)c(Cn2nc3ccc(-c4ccc(C)c(C)c4)nn3c2=O)c1	i
COc1cccc(OCC(=O)NCCCS(=O)(=O)N2CCN(c3ccccn3)CC2)c1	i
COc1ccc(-c2csc(NC(=O)C3CCN(S(=O)(=O)c4cccs4)CC3)n2)c(OC)c1	i
O=C(Nc1ccc(N2CCCS2(=O)=O)cc1)C1CCCCC1	i
CCOC(=O)Cc1csc(NC(=O)CSc2nnc(CSc3nc(C)cc(C)n3)n2C)n1	i
COCCn1c(=O)c2c(nc3n2CCCN3c2ccccc2OC)n(C)c1=O	i
O=C(NCCc1ccccc1)N1CCN(Cc2nnnn2-c2ccc(F)cc2)CC1	i
O=C(OCc1ccccc1)N1CCN(c2ncnc3c2nnn3-c2ccccc2)CC1	i
O=C(CN1CCN(c2ccccc2F)C1=O)Nc1ccccc1Cl	i
CN(C)C(CNC(=O)c1cc(-c2ccco2)on1)c1cn(C)c2ccccc12 (centres undefined)	i
COC(=O)Cn1c(=O)c2c(nc3n2CCCN3c2cccc(C)c2C)n(C)c1=O	i
COCCNC(=O)Nc1nc(-c2ccc3c(c2)CCCC3)cs1	i
O=C(NCc1ccc2c(c1)OCO2)C(=O)Nc1cc2c3c(c1)CCC(=O)N3CCC2	i
N#Cc1nc(-c2ccc(S(=O)(=O)N3CCCCC3)cc2)oc1N1CCC(C(N)=O)CC1	i
CN(C)c1ncc(NC(=O)Nc2ccc3c(c2)OCCO3)cn1	i
CCCCN(C)Cc1cc(=O)oc2cc3c(cc12)CCCC3	i
Cc1cc(C(=O)Nc2nc3c(s2)CN(C(=O)C2(c4cccs4)CCCC2)CC3)no1	i
COc1cccc(C(=O)NC2CCN(C(=O)c3cc(-c4cccc(OC)c4)n[nH]3)CC2)c1	i
Cc1cn2c3c(=O)n(Cc4ccccc4)c(=O)n(C)c3nc2n1CCCN(C)C	i
COc1cccc(CN(c2ccc(F)c(F)c2)S(=O)(=O)c2ccc3nncn3c2)c1	i
COc1ccc(Cl)cc1C(=O)NCCc1ccc(S(=O)(=O)NC(=O)NC2CCCCC2)cc1	i
C=CCn1c(SCC(=O)Nc2cccc(C(C)=O)c2)nc2sc3c(c2c1=O)CCCCC3	i
COc1nn(C)cc1C(=O)NCC#CCOc1ccccc1C(N)=O	i
O=C(CCc1csc(NC(=O)Nc2cccc(Cl)c2)n1)NCc1ccccc1Cl	i

Next part:
SMILES	GIRK2 act
COc1ccccc1OCC#CCNC(=O)CN1C(=O)CCC1=O	i
CCN1CC(c2nc3ccccc3n2Cc2ccccc2F)CC1=O (centres undefined)	i
Cc1cc(C)c(S(=O)(=O)NCCC(=O)Nc2ccc(F)cc2)cc1N(C)S(C)(=O)=O	i
Cc1cccc(Oc2nccn3c(=O)n(CC(=O)Nc4ccccc4Br)nc23)c1C	i
Cc1cc(C(=O)Nc2nc(C(=O)Nc3nccs3)co2)no1	i
Cc1ccc2nc(C3CN(C(=O)COc4ccccc4C)C3)[nH]c2c1	i
O=S(=O)(NCCCN1CCN(c2ccccc2)CC1)C1CC1	i
CCOc1ccc(C(=O)N2CCN(c3cc(-n4cccn4)ncn3)CC2)cc1	i
CN=C1NC(=O)/C(=C/c2ccc3ncccc3c2)S1	i
Cn1nc(C2CCN(CC#N)CC2)n(-c2ccccc2)c1=O	i
CCc1ccc2ncc(C#N)c(Nc3ccc(OC)c(OC)c3)c2c1	i
CCOc1cccc(C2c3c(oc4ccc(C)cc4c3=O)C(=O)N2c2cc(C)on2)c1 (centres undefined)	i
Cc1ccc(S(=O)(=O)N2CCCc3ccc(NS(=O)(=O)c4ccccc4)cc32)cc1	i
CC(C)(C)C(=O)NC1CC(=O)N(C2CC2)C1 (centres undefined)	i
CN1CCN(CC(=O)NCC23CC4CCC(CC(C4)C2)C3)CC1	i
Cc1ccc2c(c1)N(C(=O)CSc1nc3c(-c4ccccc4)csc3c(=O)n1C)CCO2	i
COC(=O)CC1=CC(SCC(=O)NCc2ccc(Cl)cc2)=Nc2ccccc2N1	i
Cc1cc(NC(=O)C(=O)NCc2ccc3c(c2)OCO3)c2ccccc2n1	i
O=C(CSc1ncnc2nc(N3CCCC3)sc12)Nc1ccc(F)cc1	i
CSc1ccc(C2C(S(=O)(=O)c3ccccc3)=C(O)C(=O)N2c2ccc(F)cc2)cc1 (centres undefined)	i
Cc1nc(-c2cccc(NC(=O)c3csc(Nc4ncccn4)n3)c2)cs1	i
COc1ccc(CNC(=O)Nc2nc3ccc(SC)cc3s2)cc1OC	i
COc1ccc(CNC(=O)c2cnn3c(-c4ccc(Cl)cc4)ccnc23)cc1OC	i
C=CCn1c(=O)[nH]c2cc(C(=O)NCCc3ccc(OC)c(OC)c3)ccc2c1=O	i
Cn1cc(C(=O)N2CCC(Oc3ncccc3Cl)CC2)nn1	i

Random excerpt: 3 records from the list
SMILES	GIRK2 act
C=CCn1c(=O)[nH]c2cc(C(=O)NCCc3ccc(OC)c(OC)c3)ccc2c1=O	i
CCOc1ccc(C(=O)N2CCN(c3cc(-n4cccn4)ncn3)CC2)cc1	i
CCc1ccc2ncc(C#N)c(Nc3ccc(OC)c(OC)c3)c2c1	i

The listing continues:
SMILES	GIRK2 act
CCOc1ccc(-c2noc(CN3N=NC4C(=O)N(c5ccc(CC)cc5)C(=O)C43)n2)cc1OC (centres undefined)	i
CC(O)(CNC(=O)C1COc2ccccc2O1)c1cccs1 (centres undefined)	i
O=C(C1c2ccccc2Oc2ccccc21)N1CCC(Oc2ccc(Cl)cn2)CC1	i
Cn1c(SCc2ccccc2F)nc2c(sc(=S)n2-c2ccccc2)c1=O	i
CSc1ccc(NC(=O)c2ccc(S(=O)(=O)N(C)C)cc2)nn1	i
Cc1cc(NC(=O)c2ccc([N+](=O)[O-])o2)n(-c2nc3ccccc3s2)n1	i
COc1ccc(C(=O)NC2CCN(C(=O)c3cc(-c4ccccc4)n[nH]3)CC2)cc1	i
C=CCN1C(=O)NC(c2ccccc2)C(c2nc(-c3ccccc3)no2)=C1C (centres undefined)	i
O=S(=O)(NCCCn1ccnc1-c1ccccc1)c1cc(Cl)ccc1Cl	i
COc1cccc(C2c3c(oc4ccccc4c3=O)C(=O)N2CCCN(C)C)c1OC (centres undefined)	i
O=C(NCc1cccc(Br)c1)C1CCN(S(=O)(=O)N2CCCC2)CC1	i
COc1ccc(NC(=O)CSc2cc(-n3cccn3)ncn2)cc1Cl	i
COc1ccc(NC(=O)CSc2nnc(-c3ccc(OC)c(OC)c3)n2N)cc1OC	i
Cc1cc(S(=O)(=O)NCCn2nc(C(F)(F)F)n(C)c2=O)c(Cl)cc1Cl	i
Cc1noc(CNC(=O)C2COCC(=O)N2Cc2cccs2)n1 (centres undefined)	i
Cc1ccc(NC(=O)CN2C(=O)NC(c3cccc(Cl)c3)C3=C2COC3=O)c(C)c1 (centres undefined)	i
COc1ccc(NC(=O)CSc2nccnc2N2CCN(c3cc(C)ccc3C)CC2)c(OC)c1	i
CC1CCCN(S(=O)(=O)c2ccc(Cl)c3ccccc23)C1 (centres undefined)	i
Cn1c(=O)c2c(nc(N=Nc3c(O)[nH]c4ccccc34)n2CCc2ccccc2)n(C)c1=O	i
O=C(Nc1ccc(S(=O)(=O)N2CCOCC2)cc1)c1cc2cc(Cl)cc(Cl)c2oc1=O	i
CCCc1cc(=O)[nH]c(SCc2nc(-c3ccc(OC(F)(F)F)cc3)no2)n1	i
COc1ccc(NC(=O)Cn2cnc(SC)c(C#N)c2=O)cc1	i
CO[C@H]1/C=C/O[C@@]2(C)Oc3c(C)c(O)c4c(O)c(c(C=NN5CCN(C6CCCC6)CC5)c(O)c4c3C2=O)NC(=O)/C(C)=C\C=C\[C@H](C)[C@H](O)[C@@H](C)[C@@H](O)[C@@H](C)[C@H](OC(C)=O)[C@@H]1C	i
COCCNC(=O)NCc1cc(-c2ccncc2)n(C2CCCC2)n1	i
CCOC(=O)CNC(=O)C(=O)c1c(C)[nH]c2ccccc12	i

Continued:
SMILES	GIRK2 act
Cn1c(=O)c2c(nc3n2CCN3c2ccc(OCc3ccc(F)cc3)cc2)n(C)c1=O	i
Cc1ccc(C)c(NC(=O)CCn2cnc3c([nH]c4ccc(C)cc43)c2=O)c1	i
O=C(c1ccccc1)c1ccccc1C(=O)N1CCC(c2nnc(C3CC3)o2)CC1	i
CCN(CC)S(=O)(=O)c1ccc(C(=O)Nc2nc3nc(C)cc(C)c3s2)cc1	i
CSc1cccc(NC(=O)CCc2csc(NC(=O)c3ccc(=O)[nH]c3)n2)c1	i
Cc1cn2c(CCC(=O)N3CCN(CCc4ccccc4)CC3)csc2n1	i
Cc1cc(C)n(-c2nc3c(c(=O)n(CCN4CCOCC4)c(=O)n3C)n2CC(C)C)n1	i
COc1ccc(N2CCCS2(=O)=O)cc1NC(=O)C(=O)NCc1cc(C)oc1C	i
O=C(NCCCn1ccnc1-c1ccccc1)C(=O)NCc1ccc2c(c1)OCO2	i
COc1cccc(COc2c[nH]c(C(=O)Nc3ccc(C)cc3)cc2=O)c1	i
CC(O)CNC(=O)Cn1nc(C(=O)N2CCN(C)CC2)cc1-c1cccs1 (centres undefined)	i
Cc1ccc(Cl)c(-n2nnc(C(=O)Nc3ccccc3Cl)c2C)c1	i
O=C1c2oc3ccc(Cl)cc3c(=O)c2C(c2cccc([N+](=O)[O-])c2)N1c1ccccn1 (centres undefined)	i
CCn1c(=O)c2c(nc3n(-c4ccc(Oc5ccccc5)cc4)c(C)cn23)n(C)c1=O	i
O=C(NCc1ccccc1)c1sccc1S(=O)(=O)N1CCN(c2cccc(Cl)c2)CC1	i
CCN(CC)CCNc1cc(C)nc2cc(-c3ccc(OC)c(OC)c3)nn12	i
CS(=O)(=O)N1CCCC(c2nnc(C(F)(F)F)o2)C1 (centres undefined)	i
CCc1ccc(S(=O)(=O)N2CCN(c3cc(-n4cccc4)ncn3)CC2)cc1	i
CCc1ccc(NC(=O)/C=C/c2ccccc2)cc1	i
COc1ccc(Cl)cc1NC(=O)C(=O)NCCC(O)c1ccccc1 (centres undefined)	i
CCOC(=O)N1CCN(C(=O)c2cc(=O)c(OCc3ccc(F)cc3)co2)CC1	i
COc1ccc(CNC(=O)c2snc(-c3ccccn3)c2NC(=O)C2CC2)cc1	i
CN(Cc1cc(=O)[nH]c2ccccc12)C(=O)c1ccc(-c2ccc([N+](=O)[O-])cc2)o1	i
COc1ccc(NC(=O)c2nnn(Cc3nc(-c4ccc(OC)c(OC)c4)oc3C)c2N)cc1OC	i
O=C(Nc1nc2c(s1)COCC2)c1cc2ccccc2[nH]1	i
CCC(Oc1ccccc1F)C(=O)Nc1nonc1-c1ccc(C)cc1 (centres undefined)	i
Cc1ccc(C)c2sc(N(Cc3ccccn3)C(=O)CCCS(=O)(=O)Cc3ccccc3)nc12	i

Shown as labelled records: part of the list above
COc1ccc(N2CCCS2(=O)=O)cc1NC(=O)C(=O)NCc1cc(C)oc1C
  GIRK2 act = i

CCOC(=O)N1CCN(C(=O)c2cc(=O)c(OCc3ccc(F)cc3)co2)CC1
  GIRK2 act = i

CN(Cc1cc(=O)[nH]c2ccccc12)C(=O)c1ccc(-c2ccc([N+](=O)[O-])cc2)o1
  GIRK2 act = i

Cc1ccc(Cl)c(-n2nnc(C(=O)Nc3ccccc3Cl)c2C)c1
  GIRK2 act = i

Assay outcomes (PubChem BioAssay)

These rows are one share of the data; rates above refer to the full screens.
